Compound activity deposited in PubChem BioAssay by National Center for Advancing Translational Sciences (NCATS).
CtBP-E1A blk – CtBP/E1A binding inhibition; AlphaScreen GST-E1A/His-CtBP binding, 1536-well; stronger effect = lower value; control for the full effect not named in the record; 340,000 compounds, 0.49% hits; activity change, % (test concentration not listed); AID 651724; in the data active means activity change below about -65%; inconclusive means about -30% to -65%; inactive means above about -30%; further: on the % scale 0 is the no-effect control and ±100 the full control effect
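AlphaScreen with 125 nM GST-E1A and 125 nM His-CtBP (5X stocks) in Tris pH 8.0, 300 mM NaCl, BSA, Tween 20, TCEP. Compounds preincubated 2 h at 37 deg C, then glutathione donor/nickel acceptor beads added for 1 h at 37 deg C in dark.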
Sfp PPTase inh – inhibitors of Bacillus subtilis Sfp phosphopantetheinyl transferase. Q9F4F7. Biochemical Sfp PPTase activity, qHTS. Potency, µM, for inactives: max response, negative = inhibition, most hits filed as inhibitors. 310,000 compounds, 3.5% hits. AID 1490; active means well fitted inhibition curve with a large enough effect; inconclusive means small, poorly fitted or top-dose-only effect, or another doubt; inactive means no such curve, though single readings can be large or run the other way;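 further: the enzyme is Sfp with the accession as filed and its product quenches rhodamine fluorescence; potency means the concentration at half of the fitted maximal effect; 0% = enzyme reaction without inhibitor and -100% = no enzyme wells; top concentration of the series not given in the record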
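After 15 min at room temperature with compound, 15 nM Sfp received 5 uM rhodamine-CoA plus 12.5 uM BHQ-2-ybbR (50 mM Hepes pH 7.6, 10 mM MgCl2). Rate came from the fluorescence difference over 30 min, ex 525/em 598 nm.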
gsp ag – agonists of gsp mutant (McCune-Albright syndrome) | gsp mutant cells, cAMP HTRF, 30 min; control for the full effect not named in the record | Potency, µM (series often up to 76.9 µM), without a hit: at the top dose activation (cAMP increase), actives largely listed as activators | 340,000 compounds, 0.13% hits | AID 624287; active = well fitted activation curve with a large enough effect; inconclusive = small, poorly fitted or top-dose-only effect, or another doubt; inactive = no such curve, though single readings can be large or run the other way; cell line not stated here;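 further: phosphodiesterase inhibitor Ro 20-1724 added with compounds to block cAMP breakdown; potency means the concentration at half of the fitted maximal effect; nearly all actives have a fitted effect of over 60% in size; about a fifth of the inactives were tested at one dose only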
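Cells in DMEM/10% FBS with G418 were pretreated with compounds in DMSO plus […] (300 uM stock) for 30 min at 37C. cAMP was measured by HTRF (cAMP-d2 plus anti-cAMP antibody-K) after 30 min at room temperature.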
TRPV1 PAM – human TRPV1 potentiation; Q8NER1; TRPV1-expressing cells, Fluo-8 calcium influx, capsaicin EC20 potentiation; host cell line not named in the record; control for the full effect not named in the record; potentiation, % at 8.33 µM; 320,000 compounds, 0.02% hits; active means potentiation above 80%; inconclusive means 30% to 80%; inactive means below 30%; further: 0% is about no effect
Target sequence (Q8NER1 whole entry, looked up): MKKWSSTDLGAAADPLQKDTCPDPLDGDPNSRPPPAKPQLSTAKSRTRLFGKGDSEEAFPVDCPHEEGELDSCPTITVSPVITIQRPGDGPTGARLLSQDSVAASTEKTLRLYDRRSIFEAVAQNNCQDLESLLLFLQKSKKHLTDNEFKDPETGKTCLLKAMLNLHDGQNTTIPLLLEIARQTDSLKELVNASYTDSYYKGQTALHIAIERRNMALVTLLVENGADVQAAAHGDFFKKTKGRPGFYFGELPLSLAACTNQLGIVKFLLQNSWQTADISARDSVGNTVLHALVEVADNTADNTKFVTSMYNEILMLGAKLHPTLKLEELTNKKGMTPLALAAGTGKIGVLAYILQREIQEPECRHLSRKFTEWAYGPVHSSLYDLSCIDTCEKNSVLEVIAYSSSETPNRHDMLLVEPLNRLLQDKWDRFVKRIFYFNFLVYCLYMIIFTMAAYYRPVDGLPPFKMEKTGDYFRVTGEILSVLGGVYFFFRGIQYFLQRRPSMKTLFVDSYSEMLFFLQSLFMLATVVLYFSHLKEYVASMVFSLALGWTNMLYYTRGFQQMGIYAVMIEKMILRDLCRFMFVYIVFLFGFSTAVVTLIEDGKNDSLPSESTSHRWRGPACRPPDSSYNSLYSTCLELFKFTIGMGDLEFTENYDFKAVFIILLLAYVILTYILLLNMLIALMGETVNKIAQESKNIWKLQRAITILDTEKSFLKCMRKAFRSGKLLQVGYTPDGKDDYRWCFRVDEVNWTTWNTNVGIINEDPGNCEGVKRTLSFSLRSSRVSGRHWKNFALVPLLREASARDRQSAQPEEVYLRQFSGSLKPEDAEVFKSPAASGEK
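Fluo-8 calcium influx in TRPV1-expressing cells, kinetic read (ex 480/em 520 nm). Compound added and read 3 min for agonist activity, followed by capsaicin at EC20 final and 2 min further read for enhancement.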
ClpP mod – qHTS Assay for Activators of ClpP. 340,000 compounds, 1.9% hits. Potency, µM (series often up to 57.5 µM), for the others: top-dose activity change, negative = active. purified B. subtilis ClpP, FRET peptide cleavage, 20 min; active = well fitted falling curve with a large enough effect; inconclusive = small, poorly fitted or top-dose-only effect; inactive = no such curve, though single readings can be large or run the other way; further: potency means the concentration at half of the fitted maximal effect; the source files actives as falling curves though it sought activators and does not explain the sign; nearly all actives have a fitted effect of over 65% in size; many hits overshoot -100%
Target sequence (P80244 whole entry, looked up): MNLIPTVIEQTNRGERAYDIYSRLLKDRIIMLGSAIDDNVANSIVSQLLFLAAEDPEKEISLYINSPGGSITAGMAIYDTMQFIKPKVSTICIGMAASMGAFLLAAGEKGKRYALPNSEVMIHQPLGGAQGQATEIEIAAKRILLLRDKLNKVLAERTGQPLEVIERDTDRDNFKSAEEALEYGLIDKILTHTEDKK
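Purified B. subtilis ClpP, 10 microg/mL final in Tris/HCl pH8 with KCl, BSA, glycerol and Tween-20, cleaved an Abz/nitrotyrosine-quenched decapeptide. Fluorescence (ex 320, em 430) was read at 0 and 20 min at room temperature. Delta was normalized to 5.8 microM ADEP and DMSO/no-enzyme controls.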
Menin MLL FP FL – menin-MLL binding inhibition, fluorescein peptide; Fluorescence polarization, fluorescein-MLL peptide displacement from menin; FP activity change, % at 61.4 µM; 290,000 tested, under 10 active; inconclusive = falling polarisation curve, or a change in total fluorescence; inactive = total fluorescence flat and polarisation flat or rising; no compound was filed as active; the % refers to the polarisation; negative = inhibition;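 further: % of control where 0% means no effect; inhibitors lower the polarisation; unlabelled MLL peptide was the positive control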
gsp antag – antagonizes gsp, the McCune-Albright syndrome mutation; gsp-mutant cells, cAMP HTRF, 30 min; control for the full effect not named in the record; Potency, µM (titrated, usually from 76.9 µM), for the others: top-dose activity change, negative = inhibition, most hits filed as inhibitors; 340,000 compounds, 0.4% hits; AID 624288; active = falling curve of any shape with a large fitted effect; inconclusive = falling curve, mostly with a smaller effect; inactive = flat or rising curve; cell line not stated here;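 further: intracellular cAMP measured with PDE inhibitor Ro 20-1724 present during compound exposure; potency means the concentration at half of the fitted maximal effect; on the % scale 0 is the no-effect control and ±100 the full control effect; nearly all actives have a fitted effect of over 65% in size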
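HTRF cAMP read-out (cAMP-d2 plus anti-cAMP antibody-K in lysis buffer, 30 min RT). Before lysis, cells are exposed to compounds with […] for 30 min at 37C in DPBS containing Ca/Mg, BSA and Tween 20.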
An asterisk follows results filed as active; ? = inconclusive; . = not tested or not shown; [ ] = another dose, or the depositor's remark.

Value order: gsp ag, CtBP-E1A blk, Menin MLL FP FL, Sfp PPTase inh, TRPV1 PAM, gsp antag, ClpP mod
Cc1ccc(NC(=O)CN2C(=O)NC3(CCCc4ccccc43)C2=O)c(C)c1 (stereo not given)
→ -1%[15.4 µM], 0, ., ., -7, -12%, 1.8%
C=C(c1cn(C(C)=O)c2ccccc12)c1cn(C(C)=O)c2ccccc12
→ -55%[inhibitor], 10, ., ., ., 2%, -1.2%
COc1ccc(C(C)(C)C)cc1NC(=O)c1cc(S(=O)(=O)N(C)C)ccc1N1CCCC1
→ -3%, 0, 3.0, -6%, 9, -20%, -14%
COc1cccc(C(=O)N2CCCc3ccccc32)c1
→ ?, 0, 0.5, -2%, 24, -18%, -2.9%
COCCn1c(=S)[nH]c2cc(C(=O)N3CCC(C(N)=O)(N4CCCCC4)CC3)ccc2c1=O
→ 14%, 2, 1.2, -6%, 1, -16%, -0.7%
COc1ccc(CN2CCNC(=O)C2CC(=O)NCc2csc(C)n2)c(F)c1 (stereo not given)
→ 7%, -4, -24, 1%, 5, -9%, -3.6%
Cc1ccc(NC(=O)C(C)N2C(=O)c3ccccc3C2=O)c(C)c1 (stereo not given)
→ 9%, -6, ., 7%, 2, 5%, 0.6%
Cc1cccc(/C=N/n2c(-c3ccccn3)n[nH]c2=S)c1
→ ., ., 4.6, ?, -5, ., .
CCN(CC)S(=O)(=O)c1cccc(NC(=O)CN(C)C2CCCCC2)c1
→ 25%[15.4 µM], 8, -3.3, 15%, -8, -7%, .
COc1ccc(-c2c(NC(=O)c3ccco3)oc3ccccc3c2=O)cc1OC
→ ., 7, 3.1, 13%, 23, -2%, -0.6%
Cc1cc(-n2nc(C)cc2C)nc(NS(=O)(=O)c2ccccc2Cl)n1
→ 0%, -2, 8.5, -12%, ?, ?, -8.2%
Cc1ccc(C(=O)NC(=S)NNS(=O)(=O)c2ccccc2)cc1
→ -39%[15.4 µM], -15, 0.0, 28%, -9, ?, .
CCOC(=O)C1CCCN(C(=O)N2CCOCC2)C1 (stereo not given)
→ 5%, 5, -2.1, 5%, -4, 4%, 0.9%
O=C(CCN1CCOCC1)NNC(=O)/C(=C/c1ccccc1)NC(=O)c1ccccc1
→ 10%[15.4 µM], 4, -0.3, 25%, 8, 3%, -5.5%
N=C1C(c2ccccc2)=C(O)C2CCc3ccccc3N12 (stereo not given)
→ -47%, -5, 1.6, -3%, 28, -11%, -1.2%
CCN(CC)c1ccc(NC(=O)c2ccc(=O)[nH]c2)cc1S(=O)(=O)Nc1ccc(OC)cc1
→ -9%, -19, ., ., -8, -12%, 0.8%
O=C(CN1CCN(c2ncccn2)CC1)N(Cc1ccccc1)c1ccc(F)cc1
→ -75%[inhibitor], 2, 5.6, -19%, 3, -12%, -3.6%
O=C(CN1CCN(Cc2ccc(F)cc2)CC1)NCc1ccccc1
→ 20%, ., -2.0, 16%, 24, 1%, 0.2%
Nc1c(C(=O)Nc2ccc3c(c2)OCCO3)nnn1Cc1cccc(Br)c1
→ -6%[15.4 µM], -3, ., ., 14, -6%, -10.0%
Cc1ccc(C(=O)NCC(=O)OCC(=O)Nc2cc(S(=O)(=O)N3CCOCC3)ccc2Cl)s1
→ 19%[15.4 µM], 3, ., ., ., -29%, 1.1%

Some of the entries above, reformatted:
| SMILES | gsp ag | CtBP-E1A blk | Menin MLL FP FL | Sfp PPTase inh | TRPV1 PAM | gsp antag | ClpP mod |
| --- | --- | --- | --- | --- | --- | --- | --- |
| Cc1ccc(NC(=O)C(C)N2C(=O)c3ccccc3C2=O)c(C)c1 (stereo not given) | 9% | -6 | . | 7% | 2 | 5% | 0.6% |
| Cc1cccc(/C=N/n2c(-c3ccccn3)n[nH]c2=S)c1 | . | . | 4.6 | ? | -5 | . | . |
| CCN(CC)S(=O)(=O)c1cccc(NC(=O)CN(C)C2CCCCC2)c1 | 25%[15.4 µM] | 8 | -3.3 | 15% | -8 | -7% | . |
| COc1ccc(-c2c(NC(=O)c3ccco3)oc3ccccc3c2=O)cc1OC | . | 7 | 3.1 | 13% | 23 | -2% | -0.6% |
| Cc1cc(-n2nc(C)cc2C)nc(NS(=O)(=O)c2ccccc2Cl)n1 | 0% | -2 | 8.5 | -12% | ? | ? | -8.2% |
| Cc1ccc(C(=O)NC(=S)NNS(=O)(=O)c2ccccc2)cc1 | -39%[15.4 µM] | -15 | 0.0 | 28% | -9 | ? | . |
| CCOC(=O)C1CCCN(C(=O)N2CCOCC2)C1 (stereo not given) | 5% | 5 | -2.1 | 5% | -4 | 4% | 0.9% |
| O=C(CCN1CCOCC1)NNC(=O)/C(=C/c1ccccc1)NC(=O)c1ccccc1 | 10%[15.4 µM] | 4 | -0.3 | 25% | 8 | 3% | -5.5% |
| N=C1C(c2ccccc2)=C(O)C2CCc3ccccc3N12 (stereo not given) | -47% | -5 | 1.6 | -3% | 28 | -11% | -1.2% |
| CCN(CC)c1ccc(NC(=O)c2ccc(=O)[nH]c2)cc1S(=O)(=O)Nc1ccc(OC)cc1 | -9% | -19 | . | . | -8 | -12% | 0.8% |
| O=C(CN1CCN(c2ncccn2)CC1)N(Cc1ccccc1)c1ccc(F)cc1 | -75%[inhibitor] | 2 | 5.6 | -19% | 3 | -12% | -3.6% |

The list goes on.
Value order: gsp ag, CtBP-E1A blk, Menin MLL FP FL, Sfp PPTase inh, TRPV1 PAM, gsp antag, ClpP mod
CCOc1cc(S(=O)(=O)Nc2ccc(Cl)cn2)ccc1Cl
→ -4%, 0, 0.0, 1%, ?, -25%, -0.7%
CCOc1ccc(-n2c(=S)sc3c(=O)[nH]c(SCC(=O)N4CCC(C)CC4)nc32)cc1
→ 10%, 1, 4.4, ?, 5, ?, -2.0%
Cc1cc(NC(=O)COC(=O)C2CC(=O)N(c3cccc(Cl)c3)C2)no1 (stereo not given)
→ -18%, 3, -12, 1%, -17, 5%, .
N#Cc1c(-c2ccccc2)ccnc1Oc1ccccc1
→ 30%, 22, 2.7, -19%, 10, -7%, 1.2%
Nn1c(-c2ccc(F)cc2)nc2ccccc2c1=O
→ -12%, -16, -1.0, 24%, 2, 10%, 1.6%
C=C(C)CN(CC)C(=O)CSc1ccc(S(=O)(=O)N2CCN(C)CC2)cn1
→ -18%, 13, ., ., 6, 10%, 0.6%
COc1ccc(C(=O)N/N=C/c2ccc(OC)c(COc3ccccc3)c2)cc1
→ 13%, -10, ., 4%, ?, ?, ?
Cc1ccc(OCC(=O)Nc2ccc3c(c2)C(=O)NC3=O)c(C)c1
→ -21%, -15, ., 26%, -7, 1%, 43%
O=C(NCC(c1ccco1)N1CCCC1)c1cn(Cc2ccccc2)nc1-c1ccccc1 (stereo not given)
→ 13%, 1, ., ., 0, 9%, 0.6%
COc1cccc(/C=N/NC(=O)C(C)Cn2cnc3ccccc32)c1 (stereo not given)
→ 4%, ., 0.7, 9%, -3, 2%, -6.0%
O=C(N=C1SC2CS(=O)(=O)CC2N1CCc1ccc(F)cc1)C1CCCCC1 (stereo not given)
→ 2%, ., ., 10%, -13, -6%, 2.1%
Cc1ccc(S(=O)(=O)N2CCOCC2)cc1C(=O)Nc1cccc(C(=O)NC2CC2)c1
→ -5%, 3, ., ., -7, 7%, -0.5%
CS(=O)(=O)c1ccc(S(=O)CC(=O)OCc2ccccc2)c([N+](=O)[O-])c1 (stereo not given)
→ -8%[15.4 µM], 1, 3.6, -27%, 3, ?, .
Cn1c(=N)n(CC(=O)c2ccc(Br)cc2)c2ccccc21
→ 7%[15.4 µM], 7, ., ., ., 1%, -0.1%
CN1CCCC(CC2Oc3ccccc3Sc3ccccc32)C1 (stereo not given)
→ -14%[15.4 µM], 2, 1.6, ?, -2, 23%, 0.3%
COc1ccc(-n2c(N)c(Br)c(=O)[nH]c2=O)cc1
→ -7%, -4, -0.4, 11%, -3, 10%, -0.9%
Cn1c(CCNC(=O)c2ccc(Cl)cc2)n[nH]c1=S
→ ?, 2, 1.5, -26%, 23, 2%, -0.5%
C#CC(C)OC(=O)Nc1cnccc1C(F)(F)F (stereo not given)
→ -5%[15.4 µM], -5, 1.3, 17%, -1, 2%, .
Cc1ccc2oc(C(=O)NCc3ncc(C)[nH]3)c(C)c2c1
→ -42%[inhibitor], -9, ., 5%, 3, 11%, -12%
Cc1ccsc1/C=N/NC(=O)c1cccc(S(=O)(=O)Nc2ccccc2Cl)c1
→ 1%, ?, 5.0, 10%, 10, -25%, -0.8%
Cc1ccc(-c2csc(NC(=O)CSc3nc(C)cc(=O)[nH]3)n2)cc1
→ ?, -3, 0.1, -1%, 2, ?, 0.6%
C/C(=C/C(=O)N1CCN(C)CC1)C(=O)O
→ 7%, 14, 0.5, 12%, -1, 13%, -2.8%
CC(C)CCn1cnc2c(cnn2-c2ccc(Cl)cc2)c1=O
→ 25%, 2, 3.8, 20%, -10, -6%, -7.0%
Cc1ccccc1C(=O)NCCN1CCOCC1
→ 27%, 8, -0.5, 20%, -2, 1%, -1.1%
O=C(CN1CCN(c2ccc(O)cc2)CC1)Nc1cc(S(=O)(=O)N2CCCC2)ccc1Cl
→ -7%, ?, 2.6, 45µM*, 27, -25%, -4.3%
CCOC(=O)c1cc(OC(=O)Cc2ccc(OC)c(S(=O)(=O)N3CCOCC3)c2)cc(C(=O)OCC)c1
→ -95%[inhibitor], -3, ., ., ., ., -1.4%
O=C(NCc1cccnc1)c1ccc(-c2ccc(Cl)cc2)o1
→ 4%, ., 1.6, 6%, -17, -14%, 4.1%
COc1ccc(C2C(=O)N(C3CCCCC3)CC(=O)N2Cc2ccc3c(c2)OCO3)cc1 (stereo not given)
→ -38%[inhibitor], 4, 0.0, 1%, -14, -22%, -1.2%
CCCCn1nnnc1SCC(=O)Nc1cccc(C)c1
→ -4%[15.4 µM], -12, -4.1, 17%, 0, -25%, .
CCOC(=O)c1c(NC(=O)C(F)(OC)C(F)(F)F)sc(C(=O)N2CCCCC2)c1C (stereo not given)
→ 3%, 0, 2.2, -1%, -18, -10%, -1.0%
Cc1ccc(S(=O)(=O)NCC(=O)N(CC(=O)NCc2ccco2)Cc2ccc3c(c2)OCO3)cc1
→ 2%, -1, -1.2, -1%, 29, 3%, 1.2%
